Screening results (PubChem BioAssay)
Rango release inh = inhibitors of RanGTP-induced Rango-importin beta complex dissociation; 340,000 compounds, 0.071% hits; Biochemical FRET Rango-importin beta, RanGTP-induced dissociation; Potency, µM (titrated, usually from 46.1 µM), inactives show at the top dose activity change, negative = inhibition; O95149+P62826; AID 540253; active means falling FRET ratio curve, often poorly fitted, with flat reads before Ran was added; inconclusive means other falling curves, or compound fluorescence or quenching; inactive means flat or rising ratio curve;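 further: potency means the concentration at half of the fitted maximal effect; % of control where 0% means no effect; nearly all actives have a fitted effect of over 45% in size; -100% = wells without RanGTP and RCC1; the record marks most hits as doubtful in a second field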
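FRET read at 45 min, room temperature: inhibitors block the CFP/YFP signal rise when RanGTP (0.6 uM Ran, 2 mM GTP, 0.2 uM RCC1) frees Rango (0.1 uM) from importin beta (0.25 uM). Pre-read after 5 min compound exposure flags interference.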
Rango complex inh = Rango-importin beta binding inhibition; 340,000 compounds, 0.031% hits; Rango CFP/YFP FRET sensor + importin beta, 45 min; AID 540263; Potency, µM (series often up to 92.2 µM), inactives show top-dose inhibition of complex formation; active = rising FRET ratio curve, often small or poorly fitted; inconclusive = mostly compound fluorescence or quenching in the first reads; inactive = flat curves in all reads;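 further: potency means the concentration at half of the fitted maximal effect; 0% = DMSO wells and 100% = buffer wells lacking importin beta; nearly all actives have a fitted effect of over 15% in size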
Target sequence (Q14974 whole entry, looked up): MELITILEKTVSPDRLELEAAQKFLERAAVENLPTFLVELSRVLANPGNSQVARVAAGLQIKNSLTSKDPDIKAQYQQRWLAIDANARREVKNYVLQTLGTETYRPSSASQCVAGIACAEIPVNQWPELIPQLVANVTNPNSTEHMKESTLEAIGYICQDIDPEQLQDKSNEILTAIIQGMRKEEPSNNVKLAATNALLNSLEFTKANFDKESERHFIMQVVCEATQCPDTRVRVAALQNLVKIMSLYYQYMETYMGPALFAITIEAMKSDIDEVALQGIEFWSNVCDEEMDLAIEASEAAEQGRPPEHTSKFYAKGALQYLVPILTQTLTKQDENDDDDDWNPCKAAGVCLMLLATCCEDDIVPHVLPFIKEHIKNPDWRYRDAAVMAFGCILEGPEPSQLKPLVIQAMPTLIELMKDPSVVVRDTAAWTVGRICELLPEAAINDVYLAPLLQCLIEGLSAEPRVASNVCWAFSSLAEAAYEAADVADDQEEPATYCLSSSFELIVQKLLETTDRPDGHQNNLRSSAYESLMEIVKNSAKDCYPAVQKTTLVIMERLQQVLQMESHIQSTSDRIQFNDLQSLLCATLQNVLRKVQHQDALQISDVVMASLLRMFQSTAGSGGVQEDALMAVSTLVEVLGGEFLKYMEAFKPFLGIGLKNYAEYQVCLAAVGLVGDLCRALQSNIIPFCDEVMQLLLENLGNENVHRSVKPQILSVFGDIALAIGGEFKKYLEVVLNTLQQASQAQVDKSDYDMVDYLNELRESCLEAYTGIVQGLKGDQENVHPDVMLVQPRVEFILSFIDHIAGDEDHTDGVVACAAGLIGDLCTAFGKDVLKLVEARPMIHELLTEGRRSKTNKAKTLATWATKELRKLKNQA
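Inhibition scored from the CFP 486 nm/YFP 530 nm FRET ratio 45 min after adding 0.125 microM importin beta to 50 nM Rango biosensor preincubated 5 min with compound (room temperature, PBS with DTT, Tween-20, BSA). No-importin wells as positive control.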
GLA inh pH 4.5 = blocks human alpha-galactosidase A at pH 4.5 | P06280 | purified enzyme, 4-MU-alpha-Gal fluorescence, pH 4.5 | activity change, negative = inhibition, % at 105 µM | 230,000 tested, under 10 active; inconclusive = small, poorly fitted or top-dose-only inhibition, or a rising curve; inactive = flat fitted curve, though single readings scatter; no compound was filed as active;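 further: 0% = full activity with enzyme and -100% = basal without enzyme; dose as in the result columns while the protocol names 77 µM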
miR-21 FLuc = raises the signal of a miR-21 reporter; HeLa miR-21 FLuc reporter, luciferase, 48 h; Potency, µM (highest dose often 38.3 µM), for the others: top-dose reporter change, positive = more light; 340,000 tested, under 10 active; active = well fitted rising curve with a large enough effect; inconclusive = small, poorly fitted or top-dose-only effect; inactive = no such curve, though single readings can be large or run the other way;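 further: % of control where 0% means no effect; miR-21 action dims this reporter so a rising signal means less miR-21 action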
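Luminescence from a firefly luciferase reporter carrying a miR-21 binding site downstream, stably expressed under a CMV promoter in HeLa cells that make miR-21 endogenously, reports miRNA modulation after 48 h compound exposure up to approximately 40uM final.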
* = called active by the depositor; u = inconclusive; x = no result given; & = joins results of further samples. Not all compounds are listed; count on the stated rates, not on these rows.

Screens in order: Rango release inh, Rango complex inh, GLA inh pH 4.5, miR-21 FLuc
CS(=O)(=O)N1CCC(C(=O)Nc2ccccc2)CC1
→ -17.1%, -3.4%, -4.1, -0.6%
COc1cc(/C=N/NC(=O)CCOc2ccccc2C)cc(Br)c1O
→ 10.3%, -5.1%, -2.9, -4.3%
CN(C)/C=C(\C#N)S(=O)(=O)c1ccc(Cl)cc1
→ -0.1%, -0.1%, 6.3, -0.6%
Cc1ccc(N(Cc2cc3ccccc3[nH]c2=O)C(=O)c2cccs2)cc1
→ 3.8%, -2.7%, -0.1, -1.5%
Cc1cc(C)n(-c2nc(-c3ccccc3)cs2)n1
→ -0.8%, 0.0%, -4.0, -52.6%
COc1ccc(-c2cccc(C(=O)Nc3cccc(C(=O)O)c3)c2)cc1
→ -4.9%, -0.6%, 2.6, -79.8%
Cc1ccc(C)c(OCC(=O)N/N=C\c2cccn2C)c1
→ -21.2%, 1.9%, 5.7, -5.7%
Cc1ccc(S(=O)(=O)Nc2ccc(N3CCN(C)CC3)nc2)cc1
→ -9.1%, -1.1%, -2.8, -0.5%
N#Cc1cc(Oc2cccnc2)c(Oc2cccnc2)cc1C#N
→ -6.5%, 1.8%, 5.1, -7.9%
C=C(C)COc1ccc2c(C)c(CC(=O)N3C[C@H]4C[C@@H](C3)c3cccc(=O)n3C4)c(=O)oc2c1C
→ 4.1%, 0.5%, x, -4.1%
C=CCOc1ccc(/C=C/C(=O)OCC(=O)NCCCc2ccccc2)cc1
→ 32.5%, 5.1%, x, x
CCN1C(=O)/C(=C\c2cn(CCC#N)nc2-c2ccc(F)cc2)SC1=S
→ 5.9%, 5.0%, -10.8, -7.4%
CCCCc1c(O)nc(N2CCN(Cc3ccccc3)CC2)[nH]c1=O
→ u, -4.5%, 4.7, -8.6%
CC(C(=O)Nc1ccc(Cl)cc1)N1C(=O)NC2(CCCC2)C1=O (configuration not stated)
→ 1.6%, -1.5%, x, 16.4%
CC(C)S(=O)(=O)c1cnc(-c2ccccn2)nc1N
→ -3.5%, -2.3%, 0.9, -17.5%
COc1ccc(OC)c(NC(=O)c2nnn(CC(=O)Nc3ccc4c(c3)OCO4)c2N)c1
→ -16.1%, -5.1%, x, -17.7%
CCSc1nnc(Cc2cc(=O)[nH]c(=O)[nH]2)n1-c1cc(C)ccc1C
→ -2.0%, -1.9%, -12.9, -1.4%
CC(=O)Nc1ccc(S(=O)(=O)N(C)CC(=O)NC2CCCCCCC2)cc1
→ 8.1%, 0.9%, x, x
CCOC(=O)c1ccc(NC(=O)c2nc[nH]c2C(=O)N2CCN(C(=O)OC(C)(C)C)CC2)cc1
→ x, x, 8.8, 0.9%
N#Cc1ccc(CSc2nnc(NC(=O)C3CCCO3)s2)cc1 (configuration not stated)
→ 8.1%, -1.4%, 5.6, -1.7%
CCOc1cc(/C=C(/C#N)c2nc3ccccc3[nH]2)ccc1OCc1ccc(C(=O)O)o1
→ u, u, 13.8, -17.9%
Cc1cccc(NC(=O)CN2C(=O)S/C(=C\c3cc(C)n(C)c3C)C2=O)c1
→ 23.1µM*, u, -1.3, -13.2%
CCc1ccc2c(c1)cc(C)c1nnc(SCC(=O)Nc3cc(OC)c(OC)cc3C(=O)O)n12
→ -4.5%, 1.6%, 4.9, 1.0%
O=C(C[n+]1cccc(/C=N/O)c1)N(Cc1ccccc1)Cc1ccccc1
→ -5.1%, 2.0%, -2.3, 0.0%
CCOc1ccc2nc(-c3ccccc3)nc(SCC(=O)Nc3ncc(C)s3)c2c1
→ 1.5%, 0.8%, -3.1, -2.6%
NS(=O)(=O)c1ccc(CCNC(=O)c2ccc3ccccc3n2)cc1
→ 32.2%, -1.9%, 6.9, -34.3%
CCN(CC)C(=O)CN(C#N)c1nc(C)cc(C)n1
→ 12.5%, -0.6%, 3.6, -0.7%
Cc1cc(NC(=O)CSc2nnc(NCc3ccccc3)s2)no1
→ 14.7%, 2.2%, -0.1, 4.2%
COc1cccc(NCc2nnc(SCC(=O)NC3CCS(=O)(=O)C3)n2C2CCCCC2)c1 (configuration not stated)
→ 3.1%, -0.7%, x, x
Cc1cccc2cc(CN(CC3CCCO3)S(=O)(=O)c3ccccc3)c(=O)[nH]c12 (configuration not stated)
→ 15.0%, 0.2%, x, 8.0%
O=C(NCc1ccc(F)cc1)C1CCCN1C(=O)Nc1ccc(Cl)cc1 (configuration not stated)
→ 0.5%, 3.5%, x, -0.1%
O=C(Oc1ccc(=O)n(-c2ccccc2)n1)c1cccc(Cl)c1
→ 1.5%, 1.2%, -4.5, -0.6%
C=CCN(c1ccccc1OC)S(=O)(=O)c1ccc(Cl)c(C(=O)Nc2ccc(N3CCOCC3)cc2)c1
→ 8.2%, -0.6%, -0.2, 10.6%
O=C(NCC1CCCO1)C1CCCN(S(=O)(=O)c2ccc(F)cc2)C1 (configuration not stated)
→ -13.5%, 1.7%, x, -0.7%
CCC(C)[C@H](NC(=O)C1CC(=O)N(c2ccc(OC)cc2)C1)C(=O)N1CCCCC1 (some centres not stated)
→ -3.7%, -0.3%, x, -1.8%
C/C(=N\NC(=O)CCc1c(C)n[nH]c1C)c1ccc([N+](=O)[O-])cc1
→ -5.7%, 0.3%, 0.6, -4.4%
COC(=O)c1ccc(NC(=O)C(C)N2C(=O)c3ccccc3C2=O)cc1 (configuration not stated)
→ 0.5%, -1.9%, -7.2, -2.0%
C=CCN1C(=O)CSc2ccc(C(=O)NC(C)c3ccccc3)cc21 (configuration not stated)
→ 0.3%, u, x, 2.2%
CCN1CCN(CCCNC(=O)CN2C(=O)c3cccnc3Oc3ccc(Cl)cc32)CC1
→ -9.0%, 0.6%, x, -3.0%
COc1cc(NS(C)(=O)=O)cc(OC)c1OC
→ 0.6%, -0.1%, -2.8, -2.3%
COc1cccc(OCc2cc(/C=N/n3cncn3)ccc2OC)c1
→ 9.6%, 2.1%, -0.3, 9.8%
Cc1cc(C)c(C(=O)O)c(Cl)n1
→ 1.7%, 1.8%, -4.2, 0.2%
COc1ccc(N(C)S(=O)(=O)c2cccc(C(=O)Nc3cc(OC)ccc3OC)c2)cc1
→ -11.3%, -2.2%, u, 8.3%
Cc1oc(-c2ccccc2F)nc1CSCC(=O)NC1CCC(C)CC1 (configuration not stated)
→ 15.9%, 0.3%, x, 16.5%
Cc1ccc(NC(=O)CNc2cccc(S(=O)(=O)N3CCCCC3)c2)cc1F
→ -15.1%, -0.7%, x, x
O=C(Cc1ccccc1)NNC1CC(=O)N(c2ccccc2)C1=O (configuration not stated)
→ 3.1%, -2.6%, 0.1, -1.8%
Cc1oc2c(c1C(=O)NCCO)CCCC2
→ 2.3%, -5.2%, 4.2, -3.4%
Clc1ccc(-c2cc(C3CCNCC3)[nH]n2)c(Cl)c1
→ -17.8%, 5.4%, 1.4, -16.0%
CC(=O)Nc1ccc(NC(=O)Cn2cnc3c(cnn3C(C)(C)C)c2=O)cc1
→ -4.3%, 0.5%, 1.0, -16.8%
COc1cc(OC)cc(C(=O)NC(=S)N2CCCCC2c2cccnc2)c1 (configuration not stated)
→ -4.4%, 4.4%, x, 0.9%
O=c1[nH]c(/C=C\c2cccc(F)c2)nc(O)c1[N+](=O)[O-]
→ 4.6%, -1.5%, x, -2.1%
N#C/C(=C\c1cccc2ccccc12)c1nn(-c2ccccc2)c(N)c1C#N
→ -7.2%, -7.9%, x, x
O=C1NCCN(Cc2cccc(Oc3ccccc3)c2)C1CC(=O)N1CCCCO1 (configuration not stated)
→ -5.6%, -2.4%, 4.6, -0.8%
C/C(=N\NC(=O)C(NC(=O)c1ccccc1)C(C)C)c1ccccc1 (configuration not stated)
→ -26.6%, 0.5%, 0.0, -3.4%
COc1ccc(NC(=O)CCCN2C(=O)C(c3ccccc3)Oc3cccnc32)cc1OC (configuration not stated)
→ 15.1%, -0.8%, x, -5.1%&0.2%
CC(=O)c1ccc(N=C2SCCCN2C(=O)C2CCCCC2)cc1
→ 3.5%, 1.0%, -3.2, -9.7%
CCOCCCNC(=O)C1CCN(Cc2ccc(OCc3ccccc3)c(OC)c2)CC1
→ 1.5%, -0.7%, x, -32.3%
COc1ccc(CC(=O)N2CCc3cc(OC)c(OC)cc3C2)cc1
→ -5.3%, 1.6%, x, -9.5%
COc1ccc(C2(C(=O)N3CCC(n4nc(-c5ccccc5)oc4=O)CC3)CC2)cc1
→ 12.6%, u, x, -1.8%
CCc1cn([C@H]2C[C@H](O)[C@@H](CO)O2)c(=O)[nH]c1=O
→ -18.1%, -2.5%, x, 12.1%

Next results.
Screens in order: Rango release inh, Rango complex inh, GLA inh pH 4.5, miR-21 FLuc
O=[N+]([O-])c1ccc(N2CCN(Cc3ccc([N+](=O)[O-])o3)CC2)cc1
→ 24.5%, 1.6%, x, 12.5%
C/C(CC(=O)NCc1ccco1)=N\NC(=O)Cc1ccc(-c2ccccc2)cc1
→ 6.1%, -1.3%, 1.5, 1.0%
O=C(NCc1ccc2c(c1)OCO2)c1cccc(C(=O)NCc2ccc3c(c2)OCO3)c1
→ 13.3%, -2.1%, 2.9, 0.3%
CCOC(=O)N1CCN(c2cc(N3CCOCC3)c(F)cc2[N+](=O)[O-])CC1
→ 13.6%, 7.6%, 0.7, -11.5%
CC1Cc2ccccc2N1C(=O)COC(=O)c1ccc(O)cc1 (configuration not stated)
→ -5.9%, 0.5%, -0.4, -6.0%
c1ccc(-c2ccccc2-c2nc(-c3cccnc3)no2)cc1
→ 11.6%, 0.9%, -0.1, -8.6%
COc1ccc(S(=O)(=O)NC(Cc2ccccc2)C(=O)O)cc1 (configuration not stated)
→ -14.8%, 0.8%, x, -1.5%
CCOc1ccccc1Nc1nnc(SCC(=O)NC(=O)c2cccn2C)s1
→ 0.5%, -0.9%, 2.0, 2.9%
COc1cc(/C=C/C(=O)OCC(=O)Nc2cccc(F)c2)ccc1O
→ -25.1%, u, x, x
COc1ccc(NC(=O)CC2Nc3ccccc3NC2=O)c([N+](=O)[O-])c1 (configuration not stated)
→ -9.2%, -0.7%, -0.4, 3.7%
COc1ccc(C2/C(=C(/O)c3ccc4c(c3)CC(C)O4)C(=O)C(=O)N2CCCn2ccnc2)cc1OC (configuration not stated)
→ 0.9%, -3.4%, x, x
CC(CC(=O)O)Nc1ccccc1O (configuration not stated)
→ 8.0%, 0.1%, -12.3, -1.3%
CN1CCN(CCC(=O)N/N=C/c2ccccn2)CC1
→ -23.3%, -5.1%, x, -2.3%
Oc1ccc(/C=N/NC(=S)Nc2cccnc2)c(O)c1
→ u, u, -1.4, -8.2%
COC(=O)CN(C#N)c1nc(OC)nc(N(C)C)n1
→ 9.2%, 1.9%, -7.0, 4.5%
COc1ccc(S(=O)(=O)N2CCCCC2)cc1NC(=O)CN1CCN(C(C)=O)CC1
→ 0.9%, 3.3%, 0.1, -2.5%
COc1ccccc1C1CCN(Cc2cccc(C(=O)N3CCC(O)CC3)c2)CC1
→ 3.7%, -0.4%, x, -6.0%
Cc1ccc2c(c1)N(Cc1cccc(F)c1)C(=O)C(C)O2 (configuration not stated)
→ -6.3%, -1.8%, x, -9.9%
CC(CC(=O)Nc1nncs1)c1ccccc1 (configuration not stated)
→ 6.8%, -0.4%, 2.8, -5.4%
Cc1noc(C)c1COC(=O)c1csc2c1CCC(C)C2 (configuration not stated)
→ -3.5%, -2.0%, x, x
O=C(CN(Cc1ccccc1)S(=O)(=O)c1ccccc1)N/N=C/c1ccc2c(c1)OCO2
→ 1.1%, 0.4%, -2.7, 5.8%
O=C(NC1CCCCC1)Oc1cccc2ccccc12
→ 2.6%, 1.7%, 2.6, -2.2%
CCc1ncc(C(O)c2cccc(OC)c2OC)n1C (configuration not stated)
→ -10.5%, 0.3%, -5.0, -2.0%
O=C(Nc1ccccc1)c1ccccc1N=Cc1ccccc1O
→ 3.5%, 0.9%, 4.8, -54.3%
Oc1ccccc1/C=N/n1c(-c2cccs2)n[nH]c1=S
→ u, u, -4.7, -7.1%
